# Source: PubChem (National Center for Advancing Translational Sciences (NCATS))
# 2A StopGo: High Throughput Screening for Foot and Mouth Disease Virus Antivirals. human cells with a luciferase reporter of 2A StopGo recoding; control for the full effect not named in the record. Potency, µM (series often up to 57.9 µM), without a hit: at the top dose signal change, negative = less light. 410,000 compounds, 1.2% hits. AID 1159524, 2015; active = well fitted falling curve with a large enough effect; inconclusive = small, poorly fitted or top-dose-only effect; inactive = no such curve, though single readings can be large or run the other way; tested in HEK293T cells; also: % is scaled to controls: 0 for no effect and ±100 for the full control effect; nearly all actives have a fitted effect of over 45% in size; luciferase light after 4 h
# Cruzain inh Det: qHTS Assay for Promiscuous and Specific Inhibitors of Cruzain (with detergent); Cruzipain (Trypanosoma cruzi), P25779; purified cruzain, Z-FR-AMC fluorescence, 0.01% Triton; 200,000 compounds, 0.43% hits; Potency, µM, for the others: max response, negative = inhibition, hits mostly inhibitors; AID 1478, 2009; active = well fitted curve in the direction sought with a large enough effect; inconclusive = small, poorly fitted or top-dose-only effect, or another doubt; inactive = no such curve, though single readings can be large; an effect the other way counts as inactive or inconclusive;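 also: plate controls were neutral wells for no effect and buffer without enzyme for full effect; nearly all actives have a fitted effect of over 40% in size; top concentration of the series not given in the record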
# Target sequence (P25779 123-467 limits assumed): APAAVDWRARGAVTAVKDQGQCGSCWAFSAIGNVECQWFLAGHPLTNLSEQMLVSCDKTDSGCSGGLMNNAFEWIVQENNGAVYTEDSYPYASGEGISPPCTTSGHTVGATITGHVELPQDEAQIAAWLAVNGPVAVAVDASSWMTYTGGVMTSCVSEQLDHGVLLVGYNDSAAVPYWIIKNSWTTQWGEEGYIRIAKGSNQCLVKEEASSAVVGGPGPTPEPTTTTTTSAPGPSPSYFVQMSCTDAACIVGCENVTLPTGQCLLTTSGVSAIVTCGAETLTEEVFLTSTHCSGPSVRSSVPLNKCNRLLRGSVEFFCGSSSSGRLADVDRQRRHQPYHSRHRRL
#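 Z-FR-AMC hydrolysis (2 uM substrate) by cruzain (1.5 nM) monitored kinetically at ex 360/em 450 nm after 15 min room-temperature compound exposure; 0.01% Triton X-100, pH 5.5, 5 mM DTT.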
# NS1 inh: qHTS Assay for Inhibitors of Influenza NS1 Protein Function; S. cerevisiae slowed by influenza A NS1, growth recovery by OD600; Potency, µM (doses to about 46.1 µM), for the others: at the top dose activity, positive = more growth; 270,000 compounds, 0.4% hits; AID 2326, 2010; also: actives are rising curves; nearly all actives have a fitted effect of over 50% in size
#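 Growth recovery, yeast-based: influenza A NS1 expressed in S. cerevisiae causes slow growth, and suppressors are detected by OD600. The parent strain without NS1 is used as positive control.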
# Lassa entry inh: qHTS for Inhibitors of binding or entry into cells for Lassa Virus. Lassa virus pseudotype entry inhibition, cell reporter; control for the full effect not named in the record. Potency, µM (titrated, usually from 37.9 µM), inactives show top-dose activity change, negative = inhibition, most hits filed as inhibitors. 300,000 compounds, 1.2% hits. AID 540256, 2011; active means well fitted inhibition curve with a large enough effect; inconclusive means small, poorly fitted or top-dose-only effect, or effect the other way; inactive means flat fitted curve, though single readings scatter; tested in HEK293 cells; also: % is scaled to controls: 0 for no effect and ±100 for the full control effect; nearly all actives have a fitted effect of over 50% in size; luciferase read-out
# SARS PLpro yeast: qHTS of Yeast-based Assay for SARS-CoV PLP | S. cerevisiae expressing SARS-CoV PLpro, growth rescue; control for the full effect not named in the record | Potency, µM (top dose mostly 32.9 µM), for inactives: at the top dose activity, positive = growth rescue | 330,000 compounds, 0.19% hits; also: 0% is about no effect; nearly all actives have a fitted effect of over 55% in size; growth read by luminescence after 48 h
# Cruzain noTriton: qHTS Assay for Promiscuous and Specific Inhibitors of Cruzain (without detergent); Cruzipain (Trypanosoma cruzi), P25779; purified cruzain, Z-FR-AMC fluorescence, no detergent; Potency, µM, for inactives: max response, negative = inhibition, actives largely listed as inhibitors; 200,000 compounds, 2.3% hits; active = well fitted curve in the direction sought with a large enough effect; inconclusive = small, poorly fitted or top-dose-only effect, or another doubt; inactive = no such curve, though single readings can be large; an effect the other way counts as inactive or inconclusive;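 also: plate controls were enzyme without inhibitor for no effect and buffer without enzyme for full effect; nearly all actives have a fitted effect of over 40% in size; top concentration of the series not given in the record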
#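 Detergent-free condition (0.00005% Triton X-100) in acetate buffer pH 5.5 with DTT. 1.5 nM enzyme and compound were pre-mixed 15 min, then 2 uM Z-FR-AMC substrate added; reaction progress from fluorescence change between first and third reads (60 s).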
# RE007 growth inh: qHTS Assay for Inhibitors of the HIV-1 protein Vpr; S. pombe RE007 Vpr strain, BacTiter-Glo ATP luminescence, 24 h; control for the full effect not named in the record; Potency, µM (highest dose often 92.2 µM), for the others: at the highest dose activity change, negative = less growth; 360,000 compounds, 0.21% hits; AID 651644, 2012; active = well fitted falling curve with a large enough effect; inconclusive = small, poorly fitted or top-dose-only effect; inactive = no such curve, though single readings can be large or run the other way;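 also: % is scaled to controls: 0 for no effect and ±100 for the full control effect; nearly all actives have a fitted effect of over 50% in size; the assay follows cell death caused by Vpr and the record does not say whether a fall means rescue or toxicity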
#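 Fission yeast strain RE007, carrying one chromosomally integrated HIV-1 vpr copy, was seeded at OD 0.01 in PMG+AL medium with 23 nL pinned compound. After 24 h at 30 °C and 99% humidity, viability was read by BacTiter-Glo luminescence.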
# MARV entry inh: qHTS for inhibitors of binding or entry into cells for Marburg Virus | AID 540276, 2011 | Potency, µM (highest dose often 37.8 µM), for the others: top-dose activity change, negative = inhibition, most hits filed as inhibitors | Marburg virus pseudotyped entry inhibition, cell reporter; control for the full effect not named in the record; about a third of the inactives were read at about 46 µM | 300,000 compounds, 1.8% hits; active = well fitted inhibition curve with a large enough effect; inconclusive = small, poorly fitted or top-dose-only effect, or effect the other way; inactive = flat fitted curve, though single readings scatter; tested in HEK293 cells; about a fifth of its hits are not listed in these tables; also: % is scaled to controls: 0 for no effect and ±100 for the full control effect; luciferase read-out
# Active calls of the source: *; u = inconclusive; x = no result given; & = joins results of further samples; [ ] = remark or other dose. Unless noted, calls follow the shape of the dose curve; as a rule, active means well fitted rising curve with a large enough effect; inconclusive means small, poorly fitted or top-dose-only effect; inactive means no such curve, though single readings can be large or run the other way. Potency is read from the fitted curve at half-maximal effect.
SMILES,2A StopGo,Cruzain inh Det,NS1 inh,Lassa entry inh,SARS PLpro yeast,Cruzain noTriton,RE007 growth inh,MARV entry inh
CCOC(=O)C(C)(C)Sc1nc2c(cnn2-c2ccc(F)cc2)c(=O)[nH]1,-8%,x,3%,9%[46.1 µM],0%,x,-9%,0%[46.1 µM]
COc1cccc(CNC(=O)c2ccc(S(=O)(=O)N3CCOCC3)cc2)c1,-20%,x,x,0%,-5%,x,9%,-9%
COc1cccc(N/C(N)=N/c2nc(C(F)(F)F)cc(C(F)(F)F)n2)c1,0%,x,16%,x,0%,x,6%,x
COc1ccc(NC(=O)C(=O)NCC2CCCN2S(=O)(=O)c2cc(C)ccc2C)cc1 (stereo not given),0%,x,x,u,-1%,x,-27%,-21%
CC(=O)c1ccc(S(=O)(=O)N(Cc2cc3cc4c(cc3[nH]c2=O)OCCO4)CC2CCCO2)cc1 (stereo not given),x,6.7%,5%,-3%,-3%,-2%,9%,-12%
CCC(C)c1ccc(NC(=S)N2CCN(C(=O)C3CCCO3)CC2)cc1 (stereo not given),9%,x,9%,u,-4%,x,37%,-20%
CC(C)c1cc(C(=O)Nc2cccc(Cl)c2)no1,-14%,1.3%,-66%,u,-17%,-5%,u,u
Cc1ccc2[nH]c(C)c(CCNC(=O)c3c(N)no[n+]3[O-])c2c1,5%,x,x,10%,-4%,x,7%,-10%[46.1 µM]
CCOC(=O)C1CCN(c2cc3c(cc2NC(=O)c2ccccc2OCC)n(C)c(=O)n3C)CC1,u,x,-1%,x,4%,x,-22%,x
CC(=O)Nc1cccc(/C(C)=N/NC(=O)c2cccc(S(=O)(=O)N3CCOCC3)c2)c1,-9%,x,x,25%,1%,x,-9%,-20%
Cc1ccc(S(=O)(=O)N2CCCC(c3nc(-c4ccc(C)o4)no3)C2)cc1 (stereo not given),x,-1.0%,-50%,-44%,-4%,3%,-2%,u
CCCCCOc1ccc(C(=O)OCC(=O)Nc2cc(C)on2)cc1,-3%,x,x,-4%,0%,x,5%,18%
COc1ccc(Cn2nnnc2CN2CCN(c3ccc(OC)cc3)CC2)cc1,-1%,x,5%,u,-1%,x,5%,-1%[46.1 µM]
CCCOc1cccc(C2/C(=C(\O)c3ccc4c(c3)OCCO4)C(=O)C(=O)N2CCCn2ccnc2)c1 (stereo not given),-4%,x,0%,x,1%,x,0%,x
Cn1ncc(Cl)c1C(=O)N1CCCc2ccccc21,-5%,-0.6%,5%,-2%,3%,-4%,9%,3%
S=C(N=Nc1ccccc1)NNc1ccccc1,29%,-0.2%,-40%,u,2%,2%,-27%,20%
CSc1ccc(CCNC(=O)CCc2nnc3ccc(N4CCCC4)nn23)cc1,-10%,x,4%,x,6%,x,-19%,x
Cc1cccc(N(Cc2ccccc2)C(=O)c2cccc(S(=O)(=O)N3CC(C)OC(C)C3)c2)c1 (stereo not given),-14%,x,x,u,-5%,x,1%,u
COC(=O)c1ccc(NC(=O)c2cccc(NC(=O)c3ccco3)c2)cc1,4%,x,5%,3%,2%,x,-14%,u
O=c1[nH]c(C2CCN(S(=O)(=O)c3ccc4c(c3)OCCO4)CC2)nc2c1nnn2Cc1cccc(F)c1,-11%,x,22%,14%[46.1 µM],-1%,x,1%,2%[46.1 µM]
Cc1ccc(C(=O)CN2C(=O)NC3(CCc4ccccc43)C2=O)s1 (stereo not given),31%[activator],x,x,7%,3%,x,-22%,10%
O=C(O)c1ccccc1C(=O)c1ccc2oc(=O)[nH]c2c1,0%,x,x,3%[46.1 µM],x,x,7%,-4%[46.1 µM]
Cc1ccc(NC(=O)C2CCCN(S(=O)(=O)c3cccnc3)C2)cc1C (stereo not given),-28%,x,-4%,x,0%,x,-7%,x
COc1ccc(NC(=O)c2cc3ccccc3o2)cc1S(=O)(=O)N1CCCCC1,u,x,x,u,1%,x,-14%,u
CCOC(=O)c1ccc(N2CSC3=C(C#N)C(c4cccs4)CC(=O)N3C2)cc1 (stereo not given),-20%,-9.3%,-45%,x,6%,-16%,-18%,0%

# By substructure: the compounds so far containing a thiophene ring, fused or not
SMILES,2A StopGo,Cruzain inh Det,NS1 inh,Lassa entry inh,SARS PLpro yeast,Cruzain noTriton,RE007 growth inh,MARV entry inh
Cc1ccc(C(=O)CN2C(=O)NC3(CCc4ccccc43)C2=O)s1 (stereo not given),31%[activator],x,x,7%,3%,x,-22%,10%
CCOC(=O)c1ccc(N2CSC3=C(C#N)C(c4cccs4)CC(=O)N3C2)cc1 (stereo not given),-20%,-9.3%,-45%,x,6%,-16%,-18%,0%

# Remaining list, next part
SMILES,2A StopGo,Cruzain inh Det,NS1 inh,Lassa entry inh,SARS PLpro yeast,Cruzain noTriton,RE007 growth inh,MARV entry inh
COc1ccc(CN2CCC(n3nccc3NC(=O)C3CCCC3)CC2)cc1,-18%,x,7%,x,1%,x,4%,x
O=C(Nc1ccc(C(=O)OCc2cc(=O)n3nc(C4CC4)sc3n2)cc1)c1ccccc1,u,-1.3%,x,15%[46.1 µM],x,-6%,x,x
CCC(=O)c1ccc(OCC(=O)NCc2ccccc2CN2CCCC2)cc1,-6%,x,x,2%,3%,x,-11%,u
Fc1ccccc1N1CCN(Cc2nc(-c3ccccc3)no2)CC1,-9%,-4.7%,-11%,2%,-3%,3%,-10%,2%
COc1ccc(NC(=S)NC(NC(=O)C(C)C)C(Cl)(Cl)Cl)c([N+](=O)[O-])c1 (stereo not given),19%,0.6%,8%,-9%,-5%,u,-2%,u
CCN(CC)CCC(=O)Nc1ccc2c(c1)N(C(=O)CN(CC)CC)c1ccccc1CC2,-17%,-0.5%,10%,u,-3%,0%,-8%,6.3µM*
Cc1ccc(NC(=S)NNC(=O)c2ccccc2OC(F)F)cc1,68%,-2.6%,-9%,21%,3%,9%,4%,-5%
CCc1cc2c(SCc3nc4sc(C(C)=O)c(C)c4c(=O)[nH]3)ncnc2s1,-26%,x,4%,-20%,1%,x,-8%,u
N=c1c(-c2nc3ccccc3[nH]2)cc(C(=O)c2cccs2)nn1-c1ccccc1,u,-17%,u,0%,2%,2%,6%,-10%
COc1ccc(CNC(=O)CSc2nnc(C3CC3)n2C2CC2)cc1,2%,x,x,4%,-11%,x,23%,20%
COc1ccc(N2C(=O)C3ON(C4SC(=S)N(C)C4(C)C)C(c4ccc(Cl)cc4)C3C2=O)cc1 (stereo not given),-21%,-2.9%,-5%,26%,-10%,-19%,-9%,u
CCOc1ccc(S(=O)(=O)NCCC(=O)N(C)CC(=O)Nc2ccc(N3CCOCC3)cc2)cc1,-15%,x,x,1%,3%,x,-6%,u
CS(=O)(=O)c1ccc2nc(NC(=O)c3ccccc3Br)sc2c1,63%[activator],x,0%,x,-6%,x,1%,x
O=C(NC1CCOc2ccccc21)c1ccc(Cl)nc1 (stereo not given),-11%,x,2%,0%[46.1 µM],6%,x,9%,-8%[46.1 µM]
CCOC(=O)c1c(-c2ccccc2)csc1NC(=S)N(CC)CC,u,-3.8%,-3%,-8%,6%,2%,-1%,u
COc1cc(/C=C/C(=O)Nc2ccc(C(C)=O)cc2)cc(OC)c1OC,u,-14%,-21%,-13%,-3%,u,6%,-1%
COc1cccc(Nc2nc(=O)[nH]nc2C)c1,9%,2.4%,6%,7%,-3%,2%,10%,19%[46.1 µM]
COc1ccc(N2CCC(CNC(=O)Nc3ccc(OC)cc3OC)C2)cc1 (stereo not given),-17%,1.0%,-3%,-17%,-1%,u,9%,7%
O=C(O)CCC(=O)N1N=C(c2ccco2)CC1c1cccs1 (stereo not given),-1%,1.2%,11%,8%,25%,7%,-13%,11%
O=C(Cc1ccccc1)c1c[nH]c(C(=O)NCc2ccncc2)c1,-1%,x,x,7%,-1%,x,-21%,19%[46.1 µM]
OC(CNC1CCCc2ccccc21)COc1ccc2ccccc2c1 (stereo not given),-2%,-2.2%,-14%,-2%,-2%,9%,-16%,u
O=[N+]([O-])c1cccc(S(=O)(=O)N2CCCCC2c2cccnc2)c1 (stereo not given),-17%,x,-11%,x,1%,x,-1%,x
COc1ccc(-c2nnc(SCc3ccccc3F)o2)cc1OC,0%,-8.4%,-12%,0%,1%,-1%,0%,-18%
COC(=O)c1[nH]c2cccc(OC)c2c1NC(=O)CCN1CCN(c2ccccc2F)CC1,x,-2.3%,1%,x,2%,-2%,x,-3%
C/C(=N/NC(=O)c1ccc(Br)o1)c1ccc(C)o1,28%,-12%,-6%,u,3%,-19%,-1%,9%

# (listing goes on)
SMILES,2A StopGo,Cruzain inh Det,NS1 inh,Lassa entry inh,SARS PLpro yeast,Cruzain noTriton,RE007 growth inh,MARV entry inh
Cc1ccc(OCCCC(=O)Nc2ccc(S(=O)(=O)Nc3cc(C)on3)cc2)cc1,15%,-5.3%,2%,-1%,0%,-4%,-8%,u
COc1cc(/C=N/NC(=O)c2ccc(O)cc2)ccc1Oc1ccc([N+](=O)[O-])cn1,-20%,-9.2%,-17%,-14%,-8%,-9%,-9%,u
CCOc1ccc(NS(=O)(=O)c2ccc3c(c2)N(C(C)=O)CC3)cc1,-12%,x,2%,-25%,1%,x,1%,u
CC(C)NS(=O)(=O)c1ccc(OCC(=O)NCC2CCCO2)c(Cl)c1 (stereo not given),34%[activator],1.4%,-1%,-5%,0%,-6%,15%,17%
CC(=O)Oc1ccccc1C(=O)Oc1ccccc1C(=O)O,-24%&4%,4.3%&1.7%,x,x,x,-9%&-7%,3%,x
COc1ccc(N(CC(=O)N/N=C/c2ccco2)S(=O)(=O)c2ccccc2)cc1Cl,10%,x,0%,x,0%,x,-8%,x
COC(=O)c1ccc(N2CCN(C)CC2)c(NC(=O)COc2cccc(C)c2)c1,-1%,x,-9%,5%,2%,x,2%,-18%[46.1 µM]
